AID923: qHTS Assay for Allosteric/Competitive Inhibitors of Caspase-1: Spectroscopic Profiling in AFC Spectral Region; compound fluorescence, AFC spectral region (405/520 nm); almost no hit is shown here; Potency, µM (series often up to 57.5 µM), without a hit: top-dose fluorescence increase, usual class: activators; 75,000 compounds, 1.1% hits; AID 923, 2007; active = well fitted activation curve with a large enough effect; inconclusive = small, poorly fitted or top-dose-only effect;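 also: potency is read from the fitted curve at half-maximal effect; 0% is about no effect; scaled to a free AFC standard on each plate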
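Baseline compound fluorescence (AFC region, 405 nm ex/520 nm em) taken from the intercept of kinetic reads with 50 nM caspase-1 and 5 uM Ac-WEHD-AFC; normalized to an on-plate AFC standard curve; compounds titrated up to 57 uM.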
A647 autofl: qHTS Assay for Spectroscopic Profiling in A647 Spectral Region; Compound fluorescence, A647 channel (570/671 nm), Tris buffer; max dye-equivalent concentration, M; 59,000 tested, under 10 active; active means above 1 µM dye equivalent; inconclusive means 0.1 to 1 µM; inactive means 0.1 µM or less;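 also: values scaled relative to a standard on each plate; highest value over a series up to 38 µM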
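Spectral profiling of library compounds in pH 8.0 Tris: 15 min room-temperature incubation, single ex/em pair (570/671 nm), response normalized to Alexa 647 equivalents.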
TSHR ag: qHTS Assay for Agonists of the Thyroid Stimulating Hormone Receptor. Thyrotropin receptor (Homo sapiens), P16473. HEK293-CNG-TSHR cells (CNG channel as cAMP sensor), membrane potential dye, cAMP. Potency, µM (doses to about 57.1 µM), inactives show at the highest dose activation, hits mostly activators. 73,000 compounds, 0.48% hits; active = well fitted activation curve of enough size with the parental cells flat; inconclusive = any curve in the parental cells; inactive = parental cells flat and receptor cells flat or falling; also: potency is read from the fitted curve at half-maximal effect; % of control where 0% means no effect; weak receptor curves with flat parental cells got no call and are not listed
Target sequence (P16473 whole entry, looked up): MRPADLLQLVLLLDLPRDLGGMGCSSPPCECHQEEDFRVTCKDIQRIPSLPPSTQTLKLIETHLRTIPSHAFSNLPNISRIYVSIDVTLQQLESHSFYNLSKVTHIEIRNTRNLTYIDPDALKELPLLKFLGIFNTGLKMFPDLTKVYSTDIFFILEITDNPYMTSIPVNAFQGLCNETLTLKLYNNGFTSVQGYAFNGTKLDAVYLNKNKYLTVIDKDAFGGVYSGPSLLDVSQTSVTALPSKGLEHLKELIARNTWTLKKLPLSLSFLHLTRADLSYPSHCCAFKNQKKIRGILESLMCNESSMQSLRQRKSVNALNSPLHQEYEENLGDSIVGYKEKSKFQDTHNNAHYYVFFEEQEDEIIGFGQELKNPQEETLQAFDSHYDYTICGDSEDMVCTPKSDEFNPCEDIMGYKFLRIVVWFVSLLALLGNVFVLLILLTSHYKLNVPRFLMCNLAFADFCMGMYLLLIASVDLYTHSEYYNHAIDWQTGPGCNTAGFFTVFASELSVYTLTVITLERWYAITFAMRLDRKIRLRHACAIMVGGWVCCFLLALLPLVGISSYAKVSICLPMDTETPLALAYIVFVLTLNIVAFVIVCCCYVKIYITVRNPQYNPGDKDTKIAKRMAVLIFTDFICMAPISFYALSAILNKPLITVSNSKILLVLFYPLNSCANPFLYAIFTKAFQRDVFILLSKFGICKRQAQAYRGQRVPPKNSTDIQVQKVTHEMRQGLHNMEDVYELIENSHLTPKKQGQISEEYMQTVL
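HEK 293 cells stably expressing TSHR and a cAMP-gated CNG channel; parental CNG-only cells as counterscreen. Cells preloaded 60 min with membrane potential dye plus 100 uM RO 20-1724, then compound 30 min; fluorescence read at 590 nm.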
Resorufin fluor: qHTS Assay for Spectroscopic Profiling in Resorufin Spectral Region. Compound fluorescence, resorufin region 547/598 nm, buffer; active compounds read high. max dye-equivalent concentration, M. 59,000 compounds, 0.04% hits; active = above 10 nM dye equivalent; inconclusive = 1 to 10 nM; inactive = 1 nM or less; a few of its hits are not listed in these tables; also: highest value over a series up to 38 µM
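Dye-equivalent concentration values derive from comparing each well's 547/598 nm fluorescence against resorufin standards included on every plate. Incubation was 15 min at room temperature in 100 mM Tris, pH 8.0.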
A488 autofl: qHTS Assay for Spectroscopic Profiling in A488 Spectral Region. max dye equivalency, M. compound autofluorescence, A488 spectral region, dye equivalency; active compounds read high. 59,000 compounds, 0.1% hits; active = above 10 nM dye equivalent; inconclusive = 1 to 10 nM; inactive = 1 nM or less; about half of its hits are not listed in these tables;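 also: highest value over a series up to 38 µM; compound alone in buffer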
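Compound autofluorescence was read in 100 mM Tris pH 8.0 after 15 min at room temperature, ex 480 nm/em 540 nm. Intensities were converted to A488 dye-equivalent concentration using an on-plate six-point A488 standard curve.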
Starred values were filed as active, the others as inactive; i = inactive; ? = inconclusive; nt = not tested or not shown; & = joins results of further samples; [ ] = another dose, or the depositor's remark. The list is partial; rates above refer to the full screens.

entry	compound	AID923	A647 autofl	TSHR ag	Resorufin fluor	A488 autofl
1	CSCCC(NC(=O)C1CCC(C)CC1)C(=O)NCCN1CCOCC1 (stereo not given)	-0.9%	1.33e-08	10.5%	i	i
2	CCS(=O)(=O)c1ccc2oc(SCC(=O)NCCC3=CCCCC3)nc2c1	0.0%	8e-09	20.0%	i	i
3	N=c1nc(SCCC(=O)O)ss1	-0.8%	9.7e-09	-0.2%	i	i
4	Cc1cccc(N2CC(C)Cn3c2nc2c3c(=O)n(CC(=O)OCc3ccccc3)c(=O)n2C)c1 (stereo not given)	1.5%	2.77e-08	-11.3%	i	i
5	O=C(O)C1CSC2(c3ccc4c(c3)OCCO4)CCC(=O)N12 (stereo not given)	-1.5%	1.86e-08	9.6%	i	i
6	COc1ccc(C2(C(=O)Nc3ccc(C(=O)N4CCOCC4)cc3)CCOCC2)cc1	6.4%	1e-09	14.3%	i	i
7	CNc1csc(C)c(C)c1=O	-0.1%	8e-09	0.2%	i	i
8	CC1(C)CC(=O)C=C(Nc2ccc(S(N)(=O)=O)cc2)C1	-4.3%	1e-08	16.2%	i	i

Compound profiles (already shown):
CCS(=O)(=O)c1ccc2oc(SCC(=O)NCCC3=CCCCC3)nc2c1 is entered as AID923: 0.0%; A647 autofl: 8e-09; TSHR ag: 20.0%; Resorufin fluor: i; A488 autofl: i
N=c1nc(SCCC(=O)O)ss1 is entered as AID923: -0.8%; A647 autofl: 9.7e-09; TSHR ag: -0.2%; Resorufin fluor: i; A488 autofl: i

New compounds follow:
entry	compound	AID923	A647 autofl	TSHR ag	Resorufin fluor	A488 autofl
9	Nc1nc(N)c(CCCCc2ccccc2)c(N)n1	1.4%[11.5 µM]	2.53e-08	5.4%[11.4 µM]	i	i
10	Cc1ccc(OCC(O)CN2CCN(CC(O)COC(C)C)CC2)c(C(C)(C)C)c1 (stereo not given)	-1.0%	2.26e-08	9.1%	i	i
11	CC12CCC(C(=O)NCCCn3ccnc3)(OC1=O)C2(C)C (stereo not given)	-0.4%	3.7e-09	-6.7%	i	i
12	COCCNc1ncnc2c1cnn2-c1ccc(Cl)cc1	nt	8.3e-09	nt	i	i
13	COc1ccc(CCNC(=O)c2cc3ccccn3n2)c(OC)c1OC	0.1%	nt	10.7%	nt	nt
14	COC(=O)C1CCN(S(C)(=O)=O)CC1	0.1%	1.24e-08	-1.5%	i	i
15	O=C(CSc1ncnc2c1oc1ccccc12)c1cccs1	3.5%	2.28e-08	15.5%	i	i
16	COc1cc(OC)cc(C(=O)NCCSCc2ccco2)c1	0.0%	1.36e-08	0.2%	i	i
17	O=C(COC(=O)CSc1nnc(-c2ccc(Cl)cc2)o1)NCc1ccc2c(c1)OCO2	0.7%	1.2e-09	-1.2%	i	i
18	Cc1ccc(SCCNC(=O)C(CO)(CO)CO)cc1	0.9%	nt	14.4%	nt	nt
19	CCn1cc(C(=O)N=c2sc3ccccc3n2C)c(=O)c2ccc(C)nc21	-1.6%	3.4e-09	10.5%	i	i
20	O=C(C1CCC(C(=O)N2CCCC2)CC1)N1CCCC1 (stereo not given)	0.9%	2.18e-08	-2.0%	i	i
21	CSC1=N/C(=C\c2ccccc2F)C(=O)S1	0.9%	nt	-9.5%	nt	nt
22	CCN1CCN(CCNC(=O)c2ccc(CS(=O)(=O)c3ccccc3C)o2)CC1	-1.5%	1.31e-08	-2.0%	i	i
23	O=C(NCc1ccc(F)cc1)C1CCN(S(=O)(=O)N2CCC3(CC2)OCCO3)CC1	0.1%	1e-09	3.5%	i	i
24	CC1CCCCN1C(=O)CN1C(=O)CN(C)C(=O)c2ccccc21 (stereo not given)	-2.6%	4.3e-09	-3.9%	i	i
25	COc1ccccc1-n1c(=O)oc2ccc(Cl)cc2c1=O	-0.9%	7.4e-09	1.0%	i	i
26	O=C(Cn1cccc1)N1CCN(C(c2ccccc2)c2ccccc2)CC1	-0.3%	1.98e-08	3.7%[11.4 µM]	i	i
27	O=C(Nc1c(Cl)cccc1Cl)C1CCC1	0.5%	5.3e-09	7.6%	i	i
28	CC(C)(C)NS(=O)(=O)c1ccc2nc(NC(=O)Cc3cccs3)sc2c1	0.2%	6.8e-09	-17.8%	i	i
29	Cc1cccc(NC(=O)CNc2cc(C)ccc2C)c1	-0.3%	1e-09	-14.8%	i	i
30	Cc1nnc(-c2ccccc2)c[n+]1[O-]	-3.0%	5.7e-09	16.2%	i	i
31	COc1cc(-c2nnc(-c3ccc(S(=O)(=O)c4ccccc4)cc3)o2)cc(OC)c1OC	1.6%	4.3e-09	27.2%	i	i
32	Cc1cccc(N=C(N2CCOCC2)P(=O)(N2CCOCC2)N2CCOCC2)c1	-2.4%	1.18e-08	16.1%	i	i
33	O=C(O)c1[nH]c2c([N+](=O)[O-])cc([N+](=O)[O-])cc2c1C(=O)O	-1.5%[11.5 µM]	9.3e-09	9.3%[11.4 µM]	i	i
34	O=C(Cn1nnc(-c2cccc(C(F)(F)F)c2)n1)NC1CCCC1	-0.6%	1e-09	12.8%	i	i
35	O=C(CC(SCCO)c1ccc(F)cc1)c1ccco1 (stereo not given)	-0.4%	1e-09	nt	i	i
36	CCSc1nc2nc(C)cc(C)n2n1	1.0%	1.65e-08	-2.2%	i	i
37	OCCNc1ncnc2nc[nH]c12	1.5%[11.5 µM]	1e-09	-0.1%[11.4 µM]	i	i
38	Cc1ccc(-n2nnc3c(=O)n(CC(=O)NCC4CCCO4)cnc32)cc1 (stereo not given)	1.1%	1.8e-09	0.8%	i	i
39	O=C(c1ccc(S(=O)(=O)N2CCCC2)cc1)N1CCCc2ccccc21	0.2%	nt	11.7%	nt	nt
40	O=C(O)c1cccc(N2C(=O)CSC2c2c(F)cccc2Cl)c1 (stereo not given)	0.3%	1e-09	0.0%	i	i
41	CCCC(=O)OCC(=O)Nc1cc(C(C)(C)C)nn1-c1ccccc1	-1.0%	4.8e-09	0.4%	i	i
42	Cn1c(CN2CCCC2)nc2cc(NC(=O)COc3ccc(Cl)cc3)ccc21	1.3%	2.9e-08	21.6%	i	i
43	CCOC(=O)c1c(-c2ccsc2)csc1N	6.2%	2.71e-08	6.8%	i	i
44	CC(C)OCCCN1C(=O)c2ccccc2C1C(=O)NC1CCCCC1 (stereo not given)	-2.1%	7.2e-09	?	i	i
45	Cc1ccc2oc(=O)n(CC(=O)O)c2c1	-2.2%	nt	5.2%	nt	nt
46	O=C(CCCCCn1c(=O)[nH]c2ccsc2c1=O)N1CCN(C2CCCCC2)CC1	0.0%	nt	7.5%	nt	nt
47	CS(=O)(=O)NCCSCc1c(F)cccc1Cl	0.8%	nt	22.4%	nt	nt
48	N#Cc1cccc(NC(=O)NCCc2c[nH]c3ccccc23)c1	-3.7%	nt	-12.0%	nt	nt
49	CCC(C)(C)NC(=O)C(c1ccco1)N(C(=O)c1csnn1)c1cccc(F)c1 (stereo not given)	1.6%	1.2e-09	18.4%	i	i
50	Brc1ccc(-c2noc(COc3ccc4c(c3)CCC4)n2)o1	-1.7%	nt	?	nt	nt
51	CN(C)c1ccc(C(=S)N2CCOCC2)cc1	0.3%	nt	1.6%	nt	nt
52	COc1ccc(-n2c(Cc3cccn3C)nnc2SCC(=O)Nc2cccc(F)c2)cc1	-0.7%	nt	-7.6%	nt	nt
53	COc1ccc(Cl)cc1C(=O)NCCc1ccc(S(=O)(=O)NC(=O)NC2CCCCC2)cc1	-3.3%	1e-09&8.9e-09&2.74e-08	12.6%	i	i
54	Cc1ccc(S(=O)(=O)N2CCCC2C(=O)n2nc(C)cc2C)cc1 (stereo not given)	1.6%	1e-09	6.4%	i	i
55	N#Cc1nc(-c2ccc(OCc3ccccc3)cc2)oc1NCCCN1CCOCC1	-0.1%	1.4e-09	-9.0%	i	i
56	CCOc1cc(-c2noc(CCC(=O)N3CCOCC3)n2)ccc1OC	-1.2%	3.53e-08	1.7%	i	i
57	COc1ccccc1-c1nccc(NCc2cccs2)n1	-1.5%	6.2e-09	?	i	i
58	CCOC(=O)N1CCN(C(=O)c2cnsn2)CC1	0.4%	1.08e-08	-1.3%	i	i
59	CC(C)c1nc(SCC(=O)Nc2ccc3c(c2)OCCO3)c2c(=O)n(C)c(=O)n(C)c2n1	-0.5%	nt	1.8%	nt	nt
60	CCOC(=O)c1oc2cccc(O)c2c1CN1CCOCC1	-0.5%	3.69e-08	-0.3%	i	i
61	C[C@@H](C(=O)NCc1ccccn1)[C@H]1C[C@]1(C)[C@H](NC(=O)OCc1ccccc1)c1ccccc1	0.3%	nt	?	nt	nt
62	CN(C)CCN(C)Cc1ccc2c(c1)Cc1ccccc1-2	-0.1%	nt	?	nt	nt
63	Cc1nnc(NC2(C(F)(F)F)C(=O)Nc3c2c(=O)n(C)c(=O)n3C)s1 (stereo not given)	-2.6%	1e-09	3.4%	i	i
64	Cn1c(=O)n(C/C=C/c2ccccc2)c(=O)c2c1nc1n2CCCN1c1ccc(F)cc1	1.6%	1e-09	-12.2%	i	i

Next section
entry	compound	AID923	A647 autofl	TSHR ag	Resorufin fluor	A488 autofl
65	NC(N)=NC[C@@H]1COC2(CCCCC2)O1	-0.7%[25.7 µM]	1.63e-08	-4.2%[25.6 µM]	i	i
66	c1ccc(Nc2ncnc3ccc(-c4ccoc4)cc23)cc1	4.7%	1.5e-08	?	i	i
67	Cc1cc(C)n2nc(SCn3nnc4ccccc4c3=O)nc2n1	0.9%	1.21e-08	0.8%	i	i
68	CCc1c2c(nc3cccc(SC)c13)COC2	17.5%	nt	?	nt	nt
69	O=C(Nc1ccc2c(c1)OCO2)C1CCCN(c2nc3ccccc3s2)C1 (stereo not given)	12.4%	4.61e-08	5.4%[11.4 µM]	?	i
70	O=C(CCN1C(=O)COc2ccccc21)NCc1ccco1	0.1%	9.6e-09	nt	i	i
71	O=C(c1cccc(Cl)c1)N1CCN(Cc2ccccc2F)CC1	1.3%	3.32e-08	-0.8%	i	i
72	CCc1ccc2[nH]c(=O)c(CN(CCCN3CCOCC3)C(=O)Nc3ccccc3)cc2c1	-2.2%	6.5e-09	13.5%	i	i
73	CCC(c1nnnn1CCOC)N1CCN(Cc2ccccc2)CC1 (stereo not given)	-1.9%	1.18e-08	2.0%	i	i
74	COc1cccc(-c2nnc(SCC(=O)OC(C)C)n2N)c1	0.5%	1.92e-08	12.6µM*	i	i
75	Cc1ccc(S(=O)(=O)N2CCCN(S(=O)(=O)c3ccc(C(F)(F)F)cc3)CC2)cc1	-1.8%	2.38e-08	-3.5%	i	i
76	C=CCn1c(Cc2cccs2)nnc1SCC(=O)Nc1ccc(OC)c(OC)c1	-0.1%	9.9e-09	-3.5%	i	i
77	O=S(=O)(O)c1ccc(N=Nc2ccc3c(S(=O)(=O)O)cccc3c2O)c2ccccc12	0.0%[11.5 µM]	1e-09	7.5%[11.4 µM]	i	i
78	Cc1nnc2sc(-c3cccc(NC(=O)c4ccc(-c5cccc(Cl)c5)o4)c3)nn12	0.5%	1e-09	2.0%	i	i
79	CCc1nnc(NC(=O)CSc2nc3ccccc3s2)s1	0.6%	3.3e-08	?	i	i
80	COc1ccc(N2CCN(C(=O)CSc3ccccc3)CC2)cc1	-0.6%	nt	-5.8%[11.4 µM]	nt	nt
81	Cc1ccc2[nH]c(=O)c(CN(CC3CCCO3)S(=O)(=O)c3cccc4nsnc34)cc2c1 (stereo not given)	-0.6%	1e-09	-4.3%	i	i
82	COc1ccc(OC)c(NC(=O)CSc2nc(N)c(-c3ccccc3)c(=O)[nH]2)c1	-1.5%	1.51e-08	25.1µM*	i	i
83	CCCCCC1=C2CNC(CCC)(C(=O)OC)C=C2C(C)C1=O (stereo not given)	8.3%	nt	?	nt	nt
84	Nc1nc(-c2ccccc2)cs1	0.9%	nt	-6.3%	nt	nt
85	O=C(COC(=O)c1cccs1)c1ccccc1	-1.6%	1.88e-08	-4.2%	i	i

Compound activity: PubChem BioAssay, National Center for Advancing Translational Sciences (NCATS)
